# A3A deaminase – APOBEC3A ssDNA deaminase inhibitors, primary screen, selectivity assay for APOBEC3G inhibitor project, biochemical, FAM/TAMRA oligo cleavage fluorescence; 330,000 tested, 0.41% active; recombinant A3A, FAM/TAMRA ssDNA deamination fluorescence; DNA dC->dU-editing enzyme APOBEC-3A (Homo sapiens), P31941; AID 493011, 2011; inhibition, % at 20 µM;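 active means at least 40% inhibition at 20 µM here, with at most 30% in a related deaminase screen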;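 further: plate controls were A3A with DMSO for no effect and wells lacking A3A enzyme for full effect; some results filed as inactive read as strong as hits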
# Target sequence (P31941 whole entry, looked up): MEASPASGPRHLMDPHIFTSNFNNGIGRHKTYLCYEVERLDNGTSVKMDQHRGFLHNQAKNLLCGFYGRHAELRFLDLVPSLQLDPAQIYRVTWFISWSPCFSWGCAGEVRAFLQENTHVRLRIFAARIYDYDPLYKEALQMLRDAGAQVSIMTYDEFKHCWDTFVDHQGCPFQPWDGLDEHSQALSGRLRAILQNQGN
# Gli-Sufu block – Gli-Sufu pathway antagonists, primary screen, luciferase luminescence, Sufu-KO-LIGHT cells, uHTS | Sufu-KO-LIGHT fibroblasts, Gli luciferase reporter luminescence | inhibition, % at 5 µM | 340,000 tested, 0.74% active | AID 588413, 2011;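 active means inhibition above about 55%, limit read from the data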;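 further: 0% = DMSO-treated cells and 100% = wells with medium but no cells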
# A3G deaminase – APOBEC3G DNA deaminase inhibitors, primary screen, biochemical, fluorescence, single-stranded DNA substrate, uHTS; DNA dC->dU-editing enzyme APOBEC-3G (Homo sapiens), Q9HC16; recombinant A3G, ssDNA deamination FAM/TAMRA fluorescence; inhibition, % at 20 µM; 330,000 tested, 0.28% active; AID 493012, 2011;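 active means inhibition of at least 40% at 20 µM, with no more than 30% in the related APOBEC3A deaminase screen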;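 further: plate controls were DMSO wells with A3G for no effect and wells lacking A3G enzyme for full effect; some compounds called inactive have numbers as strong as hits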
# Target sequence (Q9HC16 whole entry, looked up): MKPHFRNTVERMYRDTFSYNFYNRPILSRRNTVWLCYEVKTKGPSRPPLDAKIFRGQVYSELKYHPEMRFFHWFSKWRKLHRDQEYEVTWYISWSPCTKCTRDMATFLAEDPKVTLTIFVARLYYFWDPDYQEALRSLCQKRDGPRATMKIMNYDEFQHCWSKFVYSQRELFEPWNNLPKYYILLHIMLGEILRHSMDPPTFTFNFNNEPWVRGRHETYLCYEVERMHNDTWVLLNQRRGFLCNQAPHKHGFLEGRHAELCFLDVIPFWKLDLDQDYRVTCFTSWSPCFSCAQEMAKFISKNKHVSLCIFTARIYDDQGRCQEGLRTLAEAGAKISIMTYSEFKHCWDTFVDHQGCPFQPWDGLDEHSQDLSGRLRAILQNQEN
# MPTP inh – mitochondrial permeability transition pore inhibitors, primary screen, biochemical, isolated mouse mitochondria, absorbance. Ca2+ swelling absorbance, 30 min. inhibition, % at 10 µM. 360,000 tested, 1.4% active;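 active means inhibition of 50% or more, scaled per plate between neutral and stimulator controls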;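 further: 0% = DMSO wells given calcium and 100% = 1 mM EGTA wells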
# GRIN3A LBD mod – binders of NR3A ligand-binding domain, primary screen, biophysical, differential scanning fluorimetry, uHTS; Glutamate receptor ionotropic, NMDA 3A (GRIN3A) ligand-binding domain; NR3A LBD differential scanning fluorimetry, Tm shift; 0% = protein alone, 100% = glycine-bound protein; Tm shift relative to glycine control, % at 25 µM; 340,000 tested, 2.5% active; AID 1259313, 2017;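 active means melting temperature shift of at least 10% of the positive control shift, at one fixed dose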
# EBI2 antag – EBI2 receptor antagonists, beta-arrestin recruitment, primary screen, cell-based, luminescence, 7a,25-OHC stimulation, uHTS | 7a,25-OHC stimulated | inhibition, % at 5 µM | 360,000 tested, 0.81% active | AID 651636, 2012; in the data active means inhibition above about 38%;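 further: enzyme fragment complementation signal reports receptor beta-arrestin coupling in cells; 0% = agonist plus DMSO wells and 100% = wells without agonist; some results beyond the cut were filed as inactive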
# Target sequence (P32249 whole entry, looked up, the tested form may be a part): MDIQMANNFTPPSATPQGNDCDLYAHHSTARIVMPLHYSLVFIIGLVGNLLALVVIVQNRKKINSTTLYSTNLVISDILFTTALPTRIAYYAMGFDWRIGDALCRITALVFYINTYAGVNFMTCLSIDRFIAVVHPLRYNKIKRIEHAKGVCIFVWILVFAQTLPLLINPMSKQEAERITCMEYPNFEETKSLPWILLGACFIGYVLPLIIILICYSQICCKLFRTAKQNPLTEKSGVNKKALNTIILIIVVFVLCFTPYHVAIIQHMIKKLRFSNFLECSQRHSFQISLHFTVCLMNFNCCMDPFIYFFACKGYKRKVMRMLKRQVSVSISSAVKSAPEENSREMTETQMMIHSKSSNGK
# An asterisk follows results filed as active; x = no result given. Only part of the results is shown (hit frequency here may not be typical).
no. | Compound | A3A deaminase | MPTP inh | EBI2 antag
1 | CCc1sc(C(=O)NC2CCN(C)CC2)cc1Br | 1 | -0.5 | -9
2 | Cc1nn(-c2nc3ccccc3[nH]2)c(N)c1-c1ccccc1 | 0 | 0.9 | 11
3 | Cc1[nH]c2ccccc2c1/C=N/NC(=O)c1cccc(S(=O)(=O)Nc2cccc(C(F)(F)F)c2)c1 | -3 | -6.1 | -4
4 | COc1ccc(-c2cc3ccccc3oc2=O)cc1NC(=O)c1cccnc1 | 0 | 0.0 | -6
5 | Cc1ccc(/C(N)=N/OC(=O)c2cc(-c3ccccc3)nc3ccccc23)cc1 | -2 | -1.8 | 11
6 | CC(OC(=O)CCC(=O)c1ccccc1)C(=O)Nc1ccc(F)cc1 (stereo not given) | 2 | -0.5 | -3
7 | O=[N+]([O-])c1cc(-c2n[nH]c(-c3ccccc3)n2)cc([N+](=O)[O-])c1 | -2 | 72* | -12
8 | O=C(NCc1ccco1)c1ccc(Cn2c(=S)[nH]c3ccccc3c2=O)cc1 | -4 | -0.4 | -8

no. | Gli-Sufu block | GRIN3A LBD mod | A3G deaminase
1 | 2 | -2 | -5
2 | -87 | -15 | 4
3 | -4 | 28* | 1
4 | -6 | 2 | 0
5 | -7 | -6 | -5
6 | 2 | -1 | -9
7 | 2 | 27* | -6
8 | -14 | -10 | -6

# Quoted at random: 3 compounds from above
no. | Compound | A3A deaminase | MPTP inh | EBI2 antag
5 | Cc1ccc(/C(N)=N/OC(=O)c2cc(-c3ccccc3)nc3ccccc23)cc1 | -2 | -1.8 | 11
3 | Cc1[nH]c2ccccc2c1/C=N/NC(=O)c1cccc(S(=O)(=O)Nc2cccc(C(F)(F)F)c2)c1 | -3 | -6.1 | -4
7 | O=[N+]([O-])c1cc(-c2n[nH]c(-c3ccccc3)n2)cc([N+](=O)[O-])c1 | -2 | 72* | -12

no. | Gli-Sufu block | GRIN3A LBD mod | A3G deaminase
5 | -7 | -6 | -5
3 | -4 | 28* | 1
7 | 2 | 27* | -6

# Along the list, as entered above:
# EBI2 antag, nos. 1–8: -9, 11, -4, -6, 11, -3, -12, -8
# MPTP inh, nos. 1–8: -0.5, 0.9, -6.1, 0.0, -1.8, -0.5, 72*, -0.4
# A3G deaminase, nos. 1–8: -5, 4, 1, 0, -5, -9, -6, -6

# More structures.
no. | Compound | A3A deaminase | MPTP inh | EBI2 antag
9 | O=C(Nc1nnc(-c2ccc(Cl)cc2)o1)c1nc2ccccc2s1 | 0 | 97* | -3
10 | CC(C)(C)c1ccc(C(=O)N/N=C/c2ccccn2)cc1 | 4 | -0.5 | -26
11 | CC(NS(=O)(=O)c1ccc(Cl)cc1)C(=O)OCC(=O)c1ccc[nH]1 (stereo not given) | 1 | -2.9 | -8
12 | C/C(=N\NC(=O)c1ccccc1F)c1ccccn1 | -4 | -0.8 | 6
13 | O=C(N/N=C/c1ccccn1)c1ccc(Cl)c(Cl)c1 | 4 | 0.1 | 55*
14 | CCOc1ccc(C=NNc2ccc(S(=O)(=O)Nc3ccccc3C(=O)O)cc2[N+](=O)[O-])cc1OC | 5 | 8.7 | 8
15 | C[C@H](NS(=O)(=O)c1ccc(Cl)cc1)C(=O)OCC(=O)c1ccc[nH]1 | -6 | 0.8 | 5
16 | NS(=O)(=O)c1ccc(NC(=O)c2ccc3c(c2)CCCC3)cc1 | -7 | -0.7 | -2

no. | Gli-Sufu block | GRIN3A LBD mod | A3G deaminase
9 | 33 | -4 | 6
10 | -13 | 0 | 2
11 | 4 | 4 | 0
12 | 58* | -5 | -5
13 | x | x | -6
14 | 3 | 15* | 0
15 | 11 | -2 | -3
16 | -33 | -1 | -5

# (listing goes on)
no. | Compound | A3A deaminase | MPTP inh | EBI2 antag
17 | CC(=O)N1CCc2cc(C(=O)CN3CCCCC3)ccc21 | 1 | -1.5 | -7
18 | COc1ccccc1/C=N\Nc1cc(C)nc(-n2nc(C)cc2C)n1 | -4 | 12 | 28
19 | N#Cc1ccc(/C=N/NC(=O)c2ccccc2F)cc1 | 0 | -1.2 | 7
20 | Cc1csc(NC(=O)c2cc(C)on2)n1 | 4 | -1.0 | -1
21 | COc1ccc(-c2nnc(-c3ccc(OCC(C)C)cc3)o2)cc1 | -2 | 0.7 | 2
22 | COc1ccc(CN2C(=O)C(C)Nc3ncnc(N4CCN(c5ccccn5)CC4)c32)cc1 (stereo not given) | -5 | -0.5 | 62*
23 | COc1cc2c(cc1OC)-c1cc(N3CCCCCC3)nc(=O)n1CC2 | -2 | -2.2 | -8
24 | Cc1[nH]c2ccccc2c1/C=N/NC(=O)c1ccccc1 | -2 | -0.2 | 5

no. | Gli-Sufu block | GRIN3A LBD mod | A3G deaminase
17 | 9 | 13* | -1
18 | 25 | -1 | -9
19 | 0 | -2 | -2
20 | -50 | 0 | -3
21 | -6 | -6 | -3
22 | 19 | 3 | -8
23 | 4 | 1 | -10
24 | -1 | -4 | -4

# (cont.)
no. | Compound | A3A deaminase | MPTP inh | EBI2 antag
25 | COc1ccc(C2/C(=C(/O)c3ccc(F)cc3)C(=O)C(=O)N2CCCN2CCOCC2)cc1OC (stereo not given) | -4 | -0.5 | 0
26 | O=[N+]([O-])c1ccc(O)c(/C=N/Nc2nn[nH]n2)c1 | 0 | -31 | 7
27 | O=C(O)c1ccc2nc3c(nc2c1)-c1ccccc1C3=O | 0 | 11 | -16
28 | Cc1ccc(CN2C(=O)C(C)Nc3ncnc(N4CCOCC4)c32)cc1 (stereo not given) | -3 | -0.7 | -5
29 | CC(C)N1CCc2c(sc(NC(=S)NC(=O)c3ccccc3)c2C#N)C1 | -39 | 2.1 | -6
30 | COC(=O)CCSc1nc(N2CCOCC2)c2c(c1C#N)CC(C)(C)OC2 | -2 | 0.4 | -4
31 | Cc1ccc(O)c(N=Nc2nccs2)c1 | -1 | 2.9 | 6
32 | O=c1c(NCCc2ccccc2)c(-c2ccccc2)c1=O | -3 | 1.9 | 7

no. | Gli-Sufu block | GRIN3A LBD mod | A3G deaminase
25 | 10 | 0 | -1
26 | 6 | -2 | -3
27 | -4 | -1 | -6
28 | 1 | 0 | -1
29 | -9 | -8 | -79
30 | 18 | 1 | -5
31 | 17 | -1 | -4
32 | 4 | -18 | -8

# Further structures.
no. | Compound | A3A deaminase | MPTP inh | EBI2 antag
33 | CCN1CCCC1CNC(=O)c1cc(S(=O)(=O)N(C)C)ccc1Cl (stereo not given) | 0 | -2.7 | -3
34 | Cc1ccccc1OCC(=O)N/N=C/c1ccc2c(c1)OCCO2 | -2 | -2.5 | 6
35 | O=C(Nc1nc(-c2cc(Cl)sc2Cl)cs1)c1ccccc1 | -1 | 34 | 28
36 | COc1ccc(-c2cc(C(=O)OCC(=O)N3CCCC3)c3ccccc3n2)cc1 | -2 | -13 | 8
37 | O=C(Nc1ccccc1)c1cccnc1Nc1ccccc1 | -2 | 1.6 | 3
38 | C/C(CC(=O)NCc1ccc(Cl)cc1)=N\NC(=O)COc1ccc(C)cc1Br | 0 | -0.9 | -7
39 | CC(C)CNC(=O)c1nn(Cc2ccccc2)c(=O)c2ccccc12 | -6 | 0.0 | 16
40 | C/C(=N\NC(=O)c1ccc(NS(=O)(=O)c2cccs2)cc1)c1cccs1 | -1 | -1.1 | 1

no. | Gli-Sufu block | GRIN3A LBD mod | A3G deaminase
33 | 12 | -3 | -8
34 | -43 | -4 | -7
35 | -12 | 2 | -3
36 | 0 | 1 | -5
37 | 2 | -7 | -8
38 | -14 | 1 | -7
39 | 45 | -4 | -7
40 | -34 | -1 | 1

# Additional entries follow:
no. | Compound | A3A deaminase | MPTP inh | EBI2 antag
41 | CCN(CC(=O)NC(C)(C)C)Cc1nc2c(Br)cc(Br)cc2c(=O)[nH]1 | -5 | 8.5 | 7
42 | Cc1cc(C)n(-c2ccc(Cl)c(C(=O)O)n2)n1 | -2 | 0.6 | 30
43 | CCOC(=O)C1CCCN(C(=S)NC(=O)/C=C/c2ccc(F)cc2)C1 (stereo not given) | 2 | 0.2 | 4
44 | Cc1ccc2[nH]c(=O)c(C(c3nnnn3Cc3ccccc3)N3CCc4ccccc43)cc2c1 (stereo not given) | 0 | 3.8 | 8
45 | CC1CN(c2ncnc3c2c(-c2ccccc2)cn3-c2ccc(F)cc2)CC(C)O1 (stereo not given) | -6 | 4.9 | 75*
46 | CC1CC(C)CN(C(=O)COC(=O)c2ccc(S(=O)(=O)N(C)c3ccccc3)cc2)C1 (stereo not given) | -1 | 0.6 | 5
47 | Nc1nonc1-c1nc2ccccc2n1Cc1ccc(Cl)cc1 | -2 | 0.3 | -1
48 | O=C(Nc1nc(-c2ccccc2)cs1)c1ccco1 | -3 | 1.8 | -10

no. | Gli-Sufu block | GRIN3A LBD mod | A3G deaminase
41 | 1 | 0 | -10
42 | 0 | -1 | -5
43 | 2 | 2 | 9
44 | 0 | -9 | -4
45 | 14 | 0 | -5
46 | -3 | 1 | -5
47 | 7 | -10 | -6
48 | -41 | -21 | -10

# Carrying on.
no. | Compound | A3A deaminase | MPTP inh | EBI2 antag
49 | O=c1c2cc(Cl)ccc2[nH]c(=S)n1Cc1ccccn1 | -5 | -1.0 | 24
50 | COc1ccc(Cl)cc1C(=O)Nc1ccc2c(c1)OCO2 | -6 | 4.3 | -4
51 | O=C1NC[C@@H](c2ccccc2)OC(=O)[C@@H](Cc2ccc(F)cc2)C/C=C\C[C@@H]1CC(=O)N(CCO)Cc1ccccc1 | -1 | -2.8 | 23
52 | COc1cc(N2C(=O)C=CC2=O)c(OC)cc1Cl | -2 | 19 | 6
53 | COc1ccc(NC(=O)C(c2cc3c(cc2[N+](=O)[O-])OCO3)N(C)c2ccccc2)cc1 (stereo not given) | 0 | 1.1 | 3
54 | COc1ccc(-c2nnc(SCCC(=O)O)n2C)cc1OC | -2 | -3.3 | -2
55 | Cc1ccc(NC(=O)CSc2ccc(-c3ccco3)nn2)c(C)c1 | 5 | 0.8 | 2
56 | O=C(N/N=C/c1ccccn1)c1ccc(Cl)cc1 | -2 | -1.1 | 2

no. | Gli-Sufu block | GRIN3A LBD mod | A3G deaminase
49 | 18 | -4 | -5
50 | -17 | 28* | -5
51 | 4 | -1 | -8
52 | 7 | 0 | 43*
53 | -9 | -13 | -1
54 | -2 | 0 | -5
55 | -17 | 1 | 4
56 | 2 | -1 | -3

# Overlap with the part before: three entries, then new ones.
no. | Compound | A3A deaminase | MPTP inh | EBI2 antag
54 | COc1ccc(-c2nnc(SCCC(=O)O)n2C)cc1OC | -2 | -3.3 | -2
55 | Cc1ccc(NC(=O)CSc2ccc(-c3ccco3)nn2)c(C)c1 | 5 | 0.8 | 2
56 | O=C(N/N=C/c1ccccn1)c1ccc(Cl)cc1 | -2 | -1.1 | 2
57 | CC(C)Cc1nnc(NC(=O)c2cc([N+](=O)[O-])ccc2N2CCOCC2)s1 | 17 | -0.5 | -5
58 | CCCc1nnc(-c2ccc(OC)cc2)o1 | -2 | 1.3 | -2
59 | COC(=O)c1cc(N=CC2=C(O)CC(C)(C)CC2=O)cc(C(=O)OC)c1 | 0 | 1.5 | -11
60 | C/C(=N\NC(=O)c1ccc(NS(=O)(=O)c2cccs2)cc1)c1ccncc1 | 3 | -0.4 | 1
61 | O=C(/C=C/NNC(=O)c1cccc(Br)c1)c1cccc(Br)c1 | -4 | 51* | 9
62 | Cc1[nH]c2ccccc2c1/C=N/NC(=O)c1cccc(F)c1 | 3 | 0.2 | -1
63 | COc1ccc(S(=O)(=O)N(CCCN2CCOCC2)Cc2cccc3ccccc23)cc1 | 0 | 1.7 | 12
64 | CCOc1ccccc1C(=O)N/N=C/c1ccoc1 | 8 | 2.2 | -12
65 | COc1ccc(-c2csc3ncnc(N4CCN(S(=O)(=O)c5ccc(C)cc5)CC4)c23)cc1 | -3 | -2.2 | 22
66 | Cc1ccc(NC(=O)N2CCCC2C(=O)Nc2c(C)cc(C)cc2C)cc1 (stereo not given) | -2 | -3.1 | -6

no. | Gli-Sufu block | GRIN3A LBD mod | A3G deaminase
54 | -2 | 0 | -5
55 | -17 | 1 | 4
56 | 2 | -1 | -3
57 | -15 | 2 | -5
58 | -14 | 0 | -7
59 | -3 | 0 | -7
60 | 8 | -2 | 1
61 | -9 | 0 | -10
62 | -11 | -3 | 5
63 | -13 | 0 | -7
64 | 1 | 1 | 2
65 | 7 | 0 | -5
66 | -2 | -2 | -7

# Bioassay records: PubChem BioAssay, Sanford-Burnham Center for Chemical Genomics
